Bm FixLJ act = increases Burkholderia fixLJ two-component signaling. actives 0.3% (n = 29,000). B. multivorans fixK-promoter GFP reporter, 18 h; stronger effect = higher value. AID 1918990. z-score (no concentration beside the values);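 active = replicate mean overnight rise in green fluorescent reporter signal, 3 or more SD over negative controls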;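 note: score is relative to vehicle wells of the plate; 300 nL library stock went into each well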
The depositor's hits bear a star.

SMILES | Bm FixLJ act
CCOc1ccccc1CNCc1c(C(=O)O)c(C)n(Cc2ccc(C)cc2)c1C | -2.4
COC(=O)c1c(NC(=O)c2ccc(C(C)(C)C)cc2)sc2c1CCC(C)C2 (configuration not stated) | 1
O=C(NC1(C(F)(F)F)C(=O)Nc2c1c(=O)[nH]c(=O)n2-c1ccccc1)c1ccccc1 (configuration not stated) | -2.1
CCc1ccc(-n2c(=O)c3sc4ccccc4c3n(CC(=O)NC3CCCC3)c2=O)cc1 | -0.91
CSc1cccc(CNC(=O)N2CCN(c3ncc[nH]c3=O)CC2)c1 | -0.21
Oc1ccccc1-c1nc2cnccn2c1Nc1ccc(Cl)cc1 | -0.5
CCN(CC)C(=O)c1sc(NC(=O)C(C)Sc2nc(-c3ccccc3)cc(C(F)(F)F)n2)c(C(=O)OC)c1C (configuration not stated) | 0.64
Cc1nc(CN2CCC(NC(=O)CCC(F)(F)F)C(O)C2)cs1 (configuration not stated) | 1.3
CCCN(C(=O)CCc1nc(-c2ccc(C)cc2)no1)c1ccc(OCC)cc1 | 1.5
NC1CC(c2cc(N3CCC(C(=O)N4CCCC4)CC3)ncn2)C1 (configuration not stated) | 1
COc1ccc(OC)c(NC(=O)Cn2cnc3sc(C)c(S(=O)(=O)N4CCN(c5ccccc5OC)CC4)c3c2=O)c1 | -0.47
COc1ccc(-c2nc(CN3CCC(C(=O)NCCN(CC(C)C)CC(C)C)CC3)c(C)o2)cc1OC | -0.92
CCc1ccc(NC(=O)CSc2nc(C)c(C(=O)Nc3ccccc3)c(-c3ccc(OC)c(OC)c3)c2C#N)cc1 | 0.8
Nc1ccc2nc(-c3ccc(O)cc3)sc2c1 | 0.37
CC(C)Oc1ccc(C(=O)N2CCCCC2CCN2CCCCC2)cc1 (configuration not stated) | -1.6
CCc1[nH]nc(C(=O)N2CCC(c3[nH]ncc3-c3cccc(C)c3)CC2)c1C | 0.51
O=S(=O)(c1cccc(F)c1)N1CCC(Oc2ccc(-n3cnnn3)cc2)CC1 | -0.17
CCN1CC2(CCC1=O)CCN(S(=O)(=O)c1cccc(C)c1)CC2 | -3.4
COCc1n[nH]c(C)c1-c1ccc(C(=O)NCc2nc(C)c(C)s2)cc1 | 0.34
CC(C)c1ccc(OCC(=O)Nc2c(Cl)ccc3nsnc23)cc1 | -1.4
COc1cc(C2CC(=O)N(Cc3cccc(F)c3)c3ccccc3S2)cc(OC)c1OC (configuration not stated) | 0.68
Cc1ccc(CNC(=O)CCCn2c(=O)c3ccccc3n(Cc3ccc(Cl)cc3)c2=O)cc1 | -0.49
CCn1c(=O)c2cc(C(=O)N3CCN(c4cccc(Cl)c4)CC3)sc2c2ccccc21 | 1.4
CS(=O)(=O)CCc1nc(C(O)c2ccccc2)nn1Cc1ccccc1 (configuration not stated) | -1.9
Cc1oc(-c2cccc(C(F)(F)F)c2)nc1CN1C2CCC1CC(=O)NC2 (configuration not stated) | -0.06
CCc1c(C)nn(C)c1NC(=O)CCSc1ccc2c(c1)OCCO2 | -0.38
Cc1ccc(NC(=O)CN(CCc2ccccc2)S(=O)(=O)c2ccccc2)c(C)c1 | 0.44
CCCCNS(=O)(=O)c1ccc(NC(=O)c2c(-c3ccccc3)noc2C)cc1 | -3.5
COc1cc(-c2nc(Cn3nnc(C(=O)Nc4cc(C)cc(C)c4)c3C)c(C)o2)cc(OC)c1OC | -0.15
CCN(Cc1ccccc1)C(=O)c1cc2c(=O)[nH]c3ccc(C)cc3c2s1 | -2.1
Cc1ccccc1-c1cccc(C(=O)N2CCn3nc(CCC(=O)O)cc3C2)c1 | -1.1
CCOC(=O)c1cccc(NC(=O)c2cc3c(=O)n(C)c4ccccc4c3n2C)c1 | 0.07
Cc1ccc(CSc2ncc(Cl)c(C(=O)Nc3sc4c(c3C(N)=O)CCCC4)n2)cc1 | 0.43
Cn1ccnc1CN1CCCC(c2n[nH]c(=O)n2-c2ccccc2)C1 (configuration not stated) | 0.78
O=C(CC1N=C2c3ccccc3N=C(SCC(=O)Nc3cccc(Cl)c3)N2C1=O)NCc1cccs1 (configuration not stated) | 0.68
Cc1nn(C)c(C)c1CN(C(=O)c1ccccc1-n1cncn1)C1CC1 | -0.56
O=C(NC1COCC1Cc1ccncc1)C1CCN(C2CCCCC2)CC1 (configuration not stated) | 0.26
COc1cc2c(C(=O)N3CCN(c4cccc(C)c4)C(C)C3)cn(CC(C)C)c(=O)c2cc1OC (configuration not stated) | -2.5
COc1ccc2c(c1)OCC(C(=O)NCc1nnc3n1CCCCC3)C2 (configuration not stated) | -1.2
CCc1ccc(-c2nc(CSCC(=O)NCc3ccccc3OC)c(C)o2)cc1 | -1.3

Of the compounds above, 8 have a thiophene ring, fused or not:
SMILES | Bm FixLJ act
COC(=O)c1c(NC(=O)c2ccc(C(C)(C)C)cc2)sc2c1CCC(C)C2 (configuration not stated) | 1
CCc1ccc(-n2c(=O)c3sc4ccccc4c3n(CC(=O)NC3CCCC3)c2=O)cc1 | -0.91
CCN(CC)C(=O)c1sc(NC(=O)C(C)Sc2nc(-c3ccccc3)cc(C(F)(F)F)n2)c(C(=O)OC)c1C (configuration not stated) | 0.64
COc1ccc(OC)c(NC(=O)Cn2cnc3sc(C)c(S(=O)(=O)N4CCN(c5ccccc5OC)CC4)c3c2=O)c1 | -0.47
CCn1c(=O)c2cc(C(=O)N3CCN(c4cccc(Cl)c4)CC3)sc2c2ccccc21 | 1.4
CCN(Cc1ccccc1)C(=O)c1cc2c(=O)[nH]c3ccc(C)cc3c2s1 | -2.1
Cc1ccc(CSc2ncc(Cl)c(C(=O)Nc3sc4c(c3C(N)=O)CCCC4)n2)cc1 | 0.43
O=C(CC1N=C2c3ccccc3N=C(SCC(=O)Nc3cccc(Cl)c3)N2C1=O)NCc1cccs1 (configuration not stated) | 0.68

More compounds follow:
SMILES | Bm FixLJ act
Cc1cc2oc(C(=O)Nc3sc4c(c3C(=O)NCc3ccco3)CCC4)cc(=O)c2cc1C | -1.5
Cc1ccc(NC(=O)COc2ccc(-c3nn(C)c(=O)c4ccccc34)cc2)cc1 | -2.4
CC1=C(C(N)=O)C(c2cccc(Br)c2)n2nc(SCc3ccccc3)nc2N1 (configuration not stated) | -2.1
Cc1nc(SCC(=O)N2CCC(c3nc4ccccc4n3C)CC2)n[nH]1 | -0.54
O=C(C1CCCN(C2CCN(CCCO)CC2)C1)N1CCOCC1 (configuration not stated) | 0.71
Cc1ccc(S(=O)(=O)NCC(Nc2cccc(Cl)c2)c2ccccc2)cc1 (configuration not stated) | 0.99
COc1ccc(-c2cc(C(F)(F)F)nc(SCC(=O)NCc3ccc(OC)c(OC)c3)n2)cc1 | -0.4
COC(=O)c1ccccc1NC(=O)c1cc2c(-c3ccc(OC)c(OC)c3)nn(C)c2s1 | 0.15
COc1ccccc1N1CCN(C(=O)c2ccc(CS(=O)c3ccccc3C)o2)CC1 (configuration not stated) | -0.51
CN(C)CC1(O)CCCN(C(=O)c2c[nH]c3c(F)cccc3c2=O)C1 (configuration not stated) | 0.28
Cc1cc(CC2CN(C(=O)c3cnc(N)nc3C)CC2O)n[nH]1 (configuration not stated) | 0.6
CCOc1ccccc1N1CCN(S(=O)(=O)c2ccc(C3CCCCC3)cc2)CC1 | 0.85
CN(CCc1ccccn1)c1ncccc1CNC(=O)c1ccncc1F | -0.96
Cc1ccc2[nH]c(=O)c3cc(C(=O)N4CCN(c5ccccc5)CC4)sc3c2c1 | 0
CN1CCN(c2ccc(C(=O)NC3COCC3Cc3ccnc4ccccc34)cc2)CC1 (configuration not stated) | 0.66
Cc1ccc(C(=O)NC2(C(F)(F)F)C(=O)Nc3c2c(=O)[nH]c(=O)n3CCc2ccccc2)cc1 (configuration not stated) | -1.8
CC1CCN(S(=O)(=O)c2cn(CC(=O)Nc3ccc(F)c(Cl)c3)c(=O)c3ccccc23)CC1 | -0.29
COC(=O)C1CC(NC(=O)c2sc(C)nc2-c2ccccc2)CN1C (configuration not stated) | -4
COc1cc2[nH]c(=O)n(CCCC(=O)NCc3ccccc3)c(=O)c2cc1OC | -0.41
CCOC(=O)C1=C(COCCN)NC(C)=C(C(=O)OC)C1c1ccccc1Cl (configuration not stated) | -1.2
O=C(NCC1CC(=O)N(C2CC2)C1)c1ccc(Cl)cc1O (configuration not stated) | -2.1
COCc1cc(C)nc2sc3c(c12)NC(c1ccc(O)cc1)N(c1ccc(OC)cc1)C3=O (configuration not stated) | -3.5
CCC1=C[C@@H]2CN(C1)Cc1c([nH]c3ccccc13)[C@@](C(=O)OC)(c1cc3c(cc1OC)N(C)[C@H]1[C@@](O)(C(=O)OC)[C@H](OC(C)=O)[C@]4(CC)C=CCN5CC[C@]31[C@@H]54)C2 | -1.5
COc1ccc(C(=O)Nc2nc3c(s2)Cc2cc(OC)ccc2-3)cc1 | 0.53
CCOc1ccccc1CNC(=O)c1ccc2c(c1)N(CC)CCS2 | 0.98
CCCCN(C)CCCNC(=O)Cn1nc(CC)n2c(cc3sc(C)cc32)c1=O | -1.4
Cc1ccccc1-c1nnc(CN2CCN(c3cccc(C)c3C)CC2)o1 | -1.1
COc1ccc(C)cc1NC(=O)Cn1c(=O)oc2cc(S(=O)(=O)N3CCCCC3)ccc21 | -1.7
CCc1ccc(NC(=O)CNC(=O)Cn2c(C)cc3ccccc3c2=O)cc1 | 0.31
CCOc1ccc(C2C(C(N)=O)=C(C)Nc3nc(-c4ccc(OC)cc4)nn32)cc1 (configuration not stated) | -0.63
COc1ccc(NC(=O)/C(C#N)=C/c2ccc(OCc3cc(=O)n4nc(C)sc4n3)cc2)cc1 | -1.3
Cc1ccc(C(=O)NCCSc2c[nH]c3ccccc23)cc1C | -2.6
COc1cccc(CN(C(=O)NCC(OC)c2cccs2)C2CC2)c1 (configuration not stated) | -0.5
COc1ccccc1NC(=O)C1=C(C)Nc2nc(SCc3cccc(F)c3)nn2C1c1ccc(C(=O)O)cc1 (configuration not stated) | 1.5
CCC(O)Cn1nc(-c2ccc(C)o2)nc1-c1scc2c1OCCO2 (configuration not stated) | -0.43
COc1cccc(-c2nc(CS(=O)(=O)CC(=O)NCc3cccc(Cl)c3)c(C)o2)c1 | -1.3
COc1ccc(-n2nnnc2C2CCN(S(=O)(=O)c3cc(Cl)ccc3OC)CC2)cc1 | -0.2
CC(C)(Oc1ccc2c(c1)CCC2)C(=O)NCc1noc(C(N)=O)n1 | -1.5
COc1ccc(N2CCN(C(=O)Cn3ncc4c3-c3cc(C)ccc3OC4)CC2)cc1 | 1.9
COc1cc(NC(=O)CSc2nc(C)c(C(=O)Nc3ccccc3)c(-c3ccc(OC)c(OC)c3)c2C#N)c(OC)cc1Cl | -1.1

Fetched by compound from above, three records:
SMILES | Bm FixLJ act
O=C(NCC1CC(=O)N(C2CC2)C1)c1ccc(Cl)cc1O (configuration not stated) | -2.1
COc1ccc(C)cc1NC(=O)Cn1c(=O)oc2cc(S(=O)(=O)N3CCCCC3)ccc21 | -1.7
COc1cccc(CN(C(=O)NCC(OC)c2cccs2)C2CC2)c1 (configuration not stated) | -0.5

(listing goes on)
SMILES | Bm FixLJ act
O=c1[nH]c(NCCc2nccs2)nc2c1Cc1ccccc1OC2 | 0.85
CN(C)C(=O)N1CCOCC1CC(=O)NCCc1ccccn1 (configuration not stated) | -1.2
COc1ccc(CNCCC(c2ccc3c(c2)OCO3)c2ccccc2OC)cc1 (configuration not stated) | -2.8
Cc1cc(NC(=O)c2ccc(F)cc2)ccc1-c1cc2ccccc2oc1=O | 1.5
C=CCN1CCN(C(=O)c2cccc(-c3ccc(C(N)=O)s3)c2)CC1 | 0.08
O=C(Cc1nc2ccc(Cl)cc2[nH]1)NCc1cn2ccsc2n1 | 0.71
COc1ccc(CNC(=O)c2cc(-c3ccc(Br)s3)nc3ccccc23)c(OC)c1 | -1.4
CCCCC(=O)Nc1cc2nn(-c3ccc(OCC)cc3)nc2cc1C | -1.9
CC(C)=CC[C@@H](O)C1=CC(=O)c2c(O)ccc(O)c2C1=O | 2.2
CCOc1ccc(/C=C/c2nc(C#N)c(N3CCCCC3)o2)cc1 | 0.42
CNCCc1ccccn1 | -0.54
CCOc1ccc(-c2cc3nc(C4CCN(C(=O)OC(C)(C)C)CC4)c(C(=O)Nc4ccc(C(=O)OC)cc4)cn3n2)cc1 | -1.4
CCc1nnc(CNC(=O)Nc2ccc(OC(F)(F)F)cc2)s1 | -0.27
Cc1n[nH]c(C)c1CCN(C)C(=O)COc1ccc(F)cc1F | -1.3
CCc1ccc(-n2nc3cc(C)c(NC(=O)c4cc(Cl)ccc4OC)cc3n2)cc1 | -1
CCCSc1ncc(Cl)c(C(=O)N(Cc2cccc(Cl)c2)C2CCS(=O)(=O)C2)n1 (configuration not stated) | 0.35
COc1ccc(CCNC(=O)CSc2cc(=O)n(C)c3ccccc23)cc1OC | -1.1
CCC(=O)N1CCc2cc(S(=O)(=O)NC(CC(C)C)C(=O)Nc3cc(C)ccc3OC)ccc21 (configuration not stated) | -1.5
Cc1ccc(-c2nnc(Nc3ccc(O)cc3)c3ccccc23)cc1S(=O)(=O)NCC1CCCO1 (configuration not stated) | -1.2
COc1cc(OC)c(N(C)C(=O)c2cn(C)c(=O)c3cc(OC)c(OC)cc23)cc1Cl | 0.86

Exported with tabs: 2 of the compounds above
mol	Bm FixLJ act
COc1ccc(CNC(=O)c2cc(-c3ccc(Br)s3)nc3ccccc23)c(OC)c1	-1.4
CCCCC(=O)Nc1cc2nn(-c3ccc(OCC)cc3)nc2cc1C	-1.9

(cont.)
SMILES | Bm FixLJ act
Cc1ccc(C)n1-c1nnc(N2CCCC(C(=O)Nc3ccccc3Br)C2)s1 (configuration not stated) | 0.29
Cc1nnc(SCCNC(=O)CCn2c(C)nc3ccccc32)s1 | -0.2
Cc1ccc(C)n1-c1nnc(N2CCCC(C(=O)NCc3ccccc3)C2)s1 (configuration not stated) | -1.3
Cc1ccc(NC(=O)c2ncn(-c3ccccc3)n2)cc1Cl | -1.7
CCn1c(C(=O)NCCc2ccc(OC)c(OC)c2)cc2sc(Cl)cc21 | -1.8
CCC(Oc1ccccc1F)C(=O)Nc1cc(-c2ccccc2)no1 (configuration not stated) | -2.5
O=C(C1CCCO1)N1CCC(NCc2nc(Cc3ccccc3)no2)CC1 (configuration not stated) | -1.5
CCOc1ccc(NS(=O)(=O)c2c(C)nc3sc(CC)nn3c2=O)cc1 | -1.1
CCOC(=O)c1c(-c2ccc(C)cc2C)csc1NC(=O)c1ccccc1Cl | 0.79
CCOc1ccc(-c2cc(CCCC(=O)NCCc3ccc(OC)c(OC)c3)no2)cc1 | -0.25

Screening data: PubChem, ICCB-Longwood Screening Facility, Harvard Medical School

Not all compounds are listed; the hit share may differ from the screen's.
